Bioassay records from PubChem BioAssay.
WNV NS2B-NS3 inh – blocks West Nile virus NS2B-NS3 protease activity | AID 577 | z-score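 (tested at a level between 10 and 100 µM)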 | 0.18% of 65,000 active | P06935 | WNV NS2B-NS3 protease, fluorogenic substrate Ex360/Em465; hits give low values;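 active = z-score at -3 or under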;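 note: score is relative to mean and spread of the compound wells of a plate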
Target sequence (P06935 1371-1501 limits assumed): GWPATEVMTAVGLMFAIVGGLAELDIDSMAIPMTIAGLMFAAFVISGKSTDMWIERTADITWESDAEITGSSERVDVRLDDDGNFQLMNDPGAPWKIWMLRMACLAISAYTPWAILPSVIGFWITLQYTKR
Target sequence (P06935 1502-1679 limits assumed): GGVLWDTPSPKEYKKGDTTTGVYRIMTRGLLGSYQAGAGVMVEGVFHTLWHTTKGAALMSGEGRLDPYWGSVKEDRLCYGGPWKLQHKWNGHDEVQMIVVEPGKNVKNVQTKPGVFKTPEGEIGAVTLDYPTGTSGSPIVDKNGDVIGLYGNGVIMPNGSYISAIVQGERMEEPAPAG
Hsc70 ATP site – small molecules displacing fluorescent ligand from Hsc70 – biochemical, fluorescence polarization, primary screen (AID 568); one-dose displacement, % at 20 µM; IC50 in µM for titrated hits; 83,000 tested, under 10 active; Hsc70 fluorescence polarization, probe displacement; higher % means a stronger effect; strong numbers were not always called active;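 active = displacement above 50% without optical interference and an IC50 on retest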;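 note: ATPase domain with a fluorescein-tagged ATP probe; 0% = vehicle and 100% = excess ADP; read after one hour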
MT1-MMP reporter – MT1-MMP gene expression reporter suppression – cell-based, luciferase reporter, luminescence (AID 618); MT1-MMP promoter luciferase reporter cells, luminescence; calls from a first round at 10 µM; hits with a dose series show EC50 in µM; 0.62% of 87,000 active;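 active = over half of the reporter light lost at 10 µM or EC50 under 50 µM; inactive = the rest and hits that failed the dose series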;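 note: actives suppress MT1-MMP promoter-driven transcription so potencies describe inhibitors; HT1080 fibrosarcoma cells; overnight exposure; toxic or luciferase-blocking compounds were not removed from the actives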
Numbers without * were called inactive; i = inactive; / = no result given.

Screens in order – WNV NS2B-NS3 inh	Hsc70 ATP site	MT1-MMP reporter
O=C(CSc1nnc(-c2cccs2)n1Cc1ccccc1)N1CCc2ccccc2C1
→ /	9.1%	i
COC(=O)c1nn(-c2ccccc2)nc1-c1nn(-c2ccccc2)nc1C(=O)OC
→ /	1.4%	i
CCCOc1ccccc1C1NC(=O)NC(C)=C1C(=O)OCCOC(C)C (centres undefined)
→ -0.82	-6.5%	i
CCOc1ccc(NC(=O)Cn2nnc(-c3ccccc3NC(=O)C3CC3)n2)cc1
→ 0.69	0.6%	i
Cc1ccc(S(=O)(=O)N2CCN(C(=O)CN3CCc4ccccc4C3)CC2)cc1
→ 1.76	1.9%	i
CN(C)c1ccc(NC(=O)CN2CCC(C(=O)c3ccc(F)cc3)CC2)cc1
→ 0.5	4.8%	i
Cc1ccc(-n2[nH]c(C)c(/C=N/c3ccccn3)c2=O)cc1
→ 0.97	5.0%	i
O=C(c1ccco1)N1CCN(S(=O)(=O)c2ccc3c(c2)CCN3C(=O)C2CC2)CC1
→ -0.44	-5.8%	i
O=C(CSc1nnc(Cc2cc(=O)[nH]c(=O)[nH]2)n1-c1ccccc1)N1CCCC1
→ 0.73	6.7%	i
COc1cc(C(=O)OCC(=O)c2c[nH]c3ccccc23)ccc1OCC(=O)N1CCOCC1
→ -0.81	-3.7%	i
Cc1cc(C)nc(SCc2nnc(SCC(N)=O)n2Cc2ccco2)n1
→ /	2.7%	i
CC(=O)c1cc(-c2ccccc2)n(CC(=O)N2CCC(N3CCCCC3)CC2)c1C
→ -0.36	3.7%	i
COc1ccc(OC)c2sc(NC(=O)c3ccc(Cl)s3)nc12
→ 0.19	0.5%	i
O=C(c1cc(C2CC2)on1)N1CCN(C(c2ccccc2)c2ccccc2)CC1
→ 0.34	-3.7%	i
Cc1cccc(-n2c(N)cc(=O)[nH]c2=S)c1C
→ -0.51	4.9%	i
Cn1c(SCC(=O)N2CCCCC2)nnc1-c1ccc(S(=O)(=O)N2CCOCC2)cc1
→ 0.09	3.4%	i
Cc1cc(-c2ccccc2)nc(N(C)NC(=O)c2cccc(C(F)(F)F)c2)c1S(C)(=O)=O
→ /	-0.3%	i
O=C(CSc1nc(-c2ccccc2)cc(=O)[nH]1)N1CCOCC1
→ -0.87	-1.1%	i
CNc1nc(OC)nc(N2CCOCC2)n1
→ -0.04	-4.5%	i
CCn1nccc1C(=O)Nc1cc(Cl)ccc1Cl
→ -1.01	-5.0%	i
Cc1ccc(S(=O)(=O)CCC(=O)OCC(=O)Nc2cc(C)on2)cc1
→ 0.43	3.4%	i
COC(=O)Nc1c(C(=O)OC)cc(OC)c(OC)c1OC
→ 0.55	5.8%	i
COc1ccc(C(=O)COC(=O)CN2C(=O)NC(C)(C)C2=O)cc1OC
→ 0.11	-4.5%	i
COC(=O)CSc1nc(NC(C)C)nc(N2CCOCC2)n1
→ 0.59	-2.3%	i
CC(C)N(C(=O)CSc1nnc(-c2cc3ccccc3cc2O)n1Cc1ccco1)C(C)C
→ -1.18	0.7%	i
O=C1c2ccccc2N2C(=O)c3ccccc3C2N1Cc1ccco1 (centres undefined)
→ 0.16	0.9%	i
COC(=O)c1ccc(Nc2cc(C)nc3nc(C)nn23)cc1
→ -0.35	0.2%	i
CCOC(=O)c1ccc(N2Cc3cc(C)c(C)cc3C2)cc1O
→ 1.06	-5.7%	i
O=P(O)(O)CCP(=O)(c1ccccc1)c1ccccc1
→ -0.52	1.9%	i
COc1ccc(OC)c(-c2cc(C(=O)Nc3c(C)nn(Cc4ccccc4C)c3C)no2)c1
→ 0.28	2.6%	i
Cc1ccc(C)c(N(C(=O)CS(=O)CC(=O)Nc2ccc3c(c2)OCO3)C(C)C(=O)NC2CCCC2)c1 (centres undefined)
→ /	1.7%	i
O=C1c2ccccc2C(O)(Cc2ccccc2)N1Cc1ccco1 (centres undefined)
→ 0.53	4.2%	i
COc1ccc(CNC(=O)Cn2c(=O)oc3ccccc32)cc1OC
→ /	4.4%	i
COCCNC(=O)CSCc1nc(-c2ccc(SC)cc2)oc1C
→ 1.06	2.2%	i
Cc1cccc(N2C(=O)CC(Sc3nc(C)cc(C)n3)C2=O)c1 (centres undefined)
→ /	4.6%	i
Cc1ccccc1NC(=O)C1CCCN(S(=O)(=O)c2cnc[nH]2)C1 (centres undefined)
→ 0.98	6.4%	i
Cc1cc(NC(=O)c2ccc3c(c2)C(=O)N(C2CCCCC2)C3=O)no1
→ -0.7	3.8%	i
CCc1nc(SCc2nnc(-c3ccc(C)cc3)o2)c2c(C)c(C)sc2n1
→ /	7.0%	i
CCOC(=O)c1ccc2c(c1)nc(SCc1cn3ccsc3n1)n2CC
→ 0.05	-6.4%	i
S=c1[nH]nc(-c2ccco2)n1C1CCCCC1
→ 1.04	-3.2%	i
O=S(=O)(Cc1ccccc1)Nn1cnnc1
→ 1.12	2.5%	i
Clc1ccc2[nH]c3c(NCCCN4CCOCC4)ncnc3c2c1
→ -0.22	7.8%	i
O=C(O)Cn1c(P(=O)(O)c2ccccc2)nc2ccccc21
→ -1.47	-3.5%	i
COC(=O)C1=C(N)Oc2cc(C)n(Cc3ccncc3)c(=O)c2C1c1cccnc1 (centres undefined)
→ -0.7	-0.1%	i
c1ccc(CSc2ncccn2)cc1
→ 0.18	-1.5%	i
COc1ccc(Cl)cc1NC(=O)Cn1cccc1
→ -0.36	-5.9%	i
COC(=O)c1cccc(NC(=O)c2nn(C)c(=O)c3ccccc23)c1
→ -0.44	4.1%	i
OC1CN=C2Sc3ccccc3N2C1 (centres undefined)
→ -1.02	-1.8%	i
CCc1ccc(NC(=O)c2cccnc2)cc1
→ 0.44	4.4%	i
O=S(=O)(/N=C/N1CCOCC1)c1ccc(Cl)cc1
→ -0.72	4.7%	i
CC1=CC(c2ccccc2)n2nc(N3C(=O)C4CC=CCC4C3=O)nc2N1 (centres undefined)
→ 0.31	-5.1%	i
COc1ccc(C2N3CC4(C)CN2CC(C)(C3)C4=O)cc1OC (centres undefined)
→ -0.73	4.8%	i
N#Cc1ccc(-n2c(-c3ccccc3)nnc2-c2ccccc2)cc1C#N
→ /	1.6%	i
O=C(C1CCCO1)N1CCC(O)(c2ccccc2)CC1 (centres undefined)
→ 0.46	-0.9%	i
O=C(Nc1ccc2c(c1)OCO2)c1cc(C2CC2)on1
→ 0.43	0.7%	i
COc1ccccc1NC(=O)CN1C(=O)CCS(=O)(=O)c2ccccc21
→ 1.15	-2.1%	i
Cc1ccc(-c2cc(C(F)F)nc(NCc3cccnc3)n2)cc1
→ 0.06	-8.1%	i
Nn1c(SC/C=C/c2ccccc2)nnc1-c1cccnc1
→ 0.6	-1.2%	i
COc1cccc(NC(=O)C(NC2CCCC2)c2ccccc2)c1 (centres undefined)
→ /	4.4%	i
Cc1sc2ncn3c(C)nnc3c2c1C
→ -0.59	-3.3%	i

(more compounds)
Screens in order – WNV NS2B-NS3 inh	Hsc70 ATP site	MT1-MMP reporter
Cc1noc(C(=O)Nc2ccc3c(c2)OCO3)c1Cl
→ -0.23	0.7%	i
COc1ccc(-c2noc(CSc3nc(N)c(-c4ccccc4)c(=O)[nH]3)n2)cc1OC
→ -1.23	1.7%	i
O=S1(=O)N=C(Nc2ccc(O)c(CN3CCCCC3)c2)c2ccccc21
→ -1.19	-0.2%	i
CC(C)Oc1ccc(NC(N)=O)cc1
→ 0.71	-1.8%	i
CC1(C)NC(=O)N(CC(O)CN2CCCCC2)C1=O (centres undefined)
→ 0.16	1.4%	i
O=C(CSc1nc(-c2ccco2)cc(C(F)(F)F)n1)NCCCn1ccnc1
→ -0.39	0.7%	i
Cc1noc(/C=C/N(C)C)c1S(=O)(=O)N1CCCC(C(=O)N2CCc3ccccc32)C1 (centres undefined)
→ -0.44	3.0%	i
O=C(NCCN1CCN(c2ccccc2F)CC1)C1CC(=O)N(C2CCCC2)C1 (centres undefined)
→ -0.51	-6.2%	i
CC1(c2ccccc2)CC(C)(C)N(C(=O)C2CCCO2)c2ccccc21 (centres undefined)
→ /	-1.6%	i
CCC(C)(C)n1nnnc1C(c1ccc(OC)c(OC)c1)N1CCN(c2ccccc2)CC1 (centres undefined)
→ 0.58	0.7%	i
O=C(Nc1nccs1)c1cc(S(=O)(=O)N2CCOCC2)ccc1Cl
→ /	-5.6%	i
CCOc1cc(C(=O)OCC(=O)c2c(N)n(C)c(=O)n(C)c2=O)cc(OCC)c1OCC
→ /	2.4%	i
O=C1NC2=C(CCc3ccccc32)C(c2ccc(Br)cc2)N1 (centres undefined)
→ /	3.5%	i
Cc1ccc(-c2noc(CCC(N)=O)n2)cc1
→ 0.22	5.8%	i
COC(=O)COc1ccc(S(=O)(=O)N2CCN(c3ccccc3F)CC2)cc1C
→ -0.12	-4.3%	i
O=C(NCc1ccco1)c1cc(-c2ccccc2)nc2ccccc12
→ /	-0.3%	i
Cc1ccccc1NC(=O)c1cnn(-c2ccccc2)c1NC(=O)c1ccco1
→ -0.49	2.5%	i
Cc1cc(C)nc(SCC(=O)Nc2ncc3c(n2)CCCC3=O)n1
→ -0.47	3.7%	i
CCCCC1(CCCC)NC(=S)N(Nc2ccc(C)cc2)C1=O
→ /	0.5%	i
C=CCOc1ccc(/C(CC)=N/O)c(OC)c1
→ -0.32	-1.9%	i
CC(=O)O[C@H]1CC[C@@]2(C)C(CCC3C2CC[C@]2(C)OC(=O)CCC32)C1 (some centres undefined)
→ /	5.5%	i
O=C(Nc1cccc(Cl)c1)OCc1ccccn1
→ 0.46	0.4%	i
CCOC(=O)C1CCN(c2c(NCCCN(CC)c3ccccc3)c(=O)c2=O)CC1
→ -0.37	1.2%	i
CCOC(=O)N1CCN(C(=O)c2ccc3c(c2)ncn3C2CCCC2)CC1
→ -1.07	5.3%	i
CCOC(=O)CSc1nnc([C@@H](NC(=O)OC(C)(C)C)C(C)C)o1
→ 0.68	-4.9%	i
O=C(C1CCN(S(=O)(=O)c2ccccc2)CC1)N1CCOCC1
→ /	2.2%	i
Cn1c(=O)c(-c2ccccc2)nn2c3ccccc3nc12
→ -0.21	3.4%	i
O=C(Nc1nccs1)c1cnccn1
→ 0.19	-0.7%	i
COc1ccccc1N1C(=O)c2ccccc2NC1C(OC)OC (centres undefined)
→ /	3.4%	i
Cc1ccc(OCC(=O)N2CCN(c3nnc(-c4ccc(C)cc4)c4ccccc34)CC2)cc1
→ /	-33.9%	i

Part of the list above in order of molar mass, falling:
Screens in order – WNV NS2B-NS3 inh	Hsc70 ATP site	MT1-MMP reporter
Cc1noc(/C=C/N(C)C)c1S(=O)(=O)N1CCCC(C(=O)N2CCc3ccccc32)C1 (centres undefined)
→ -0.44	3.0%	i
CCOC(=O)N1CCN(C(=O)c2ccc3c(c2)ncn3C2CCCC2)CC1
→ -1.07	5.3%	i
CC1(c2ccccc2)CC(C)(C)N(C(=O)C2CCCO2)c2ccccc21 (centres undefined)
→ /	-1.6%	i
COc1ccccc1N1C(=O)c2ccccc2NC1C(OC)OC (centres undefined)
→ /	3.4%	i

Next part.
Screens in order – WNV NS2B-NS3 inh	Hsc70 ATP site	MT1-MMP reporter
CCn1c(SCC(=O)OCc2ccccc2)nc2c1c(=O)n(C)c(=O)n2C
→ 0.68	-6.8%	i
Cc1cc(N2CCC(C)CC2)nc(SCC(=O)c2ccccc2)n1
→ /	0.3%	i
O=C(NO)c1ccccc1O
→ 0.22	3.9%	i
O=C(c1ccc(S(=O)(=O)N2CCOCC2)cc1)N1CCN=C1SCc1cccnc1
→ -0.88	-3.1%	i
COc1ccccc1CNC(=O)CCS(=O)(=O)c1cccs1
→ 0.9	1.1%	i
O=C(Nc1ccccc1-c1nnn(CC(=O)N2CCCc3ccccc32)n1)c1cccc(Cl)c1
→ /	-3.4%	i
Cc1ccc(C(=O)N2CCN(c3ccc(NC(=O)c4cccnc4)cc3)CC2)cc1
→ 0.16	-1.7%	i
Cc1c(O)c(CN2CCCC2)cc2c1oc(=O)c1ccccc12
→ 1.06	5.3%	i
CC1CCCCN1C(=O)CSc1nc2ccsc2c(=O)n1Cc1ccccn1 (centres undefined)
→ -1.71	7.6%	i
Cc1cc(O)c2c(-c3ccccc3)cc(=O)oc2c1
→ -1.36	2.4%	i
CCCc1cc2c(cc1NS(=O)(=O)c1ccc(CCNC(C)=O)cc1)OCO2
→ 0.25	-1.3%	i
O=C(CN1CCC(NC(=O)c2ccc(F)cc2)CC1)NCc1ccccc1F
→ -0.8	1.2%	i
Cc1ccc(-n2c(SCC(N)=O)nnc2-c2ccc(S(=O)(=O)N3CCCCC3)cc2)c(C)c1
→ /	5.5%	i
Cc1cc(C)c(C(=O)CC2(O)C(=O)Nc3ccccc32)cc1C (centres undefined)
→ 0.51	-7.0%	i
Cc1cc(NCCCN)nc(-c2ccccc2O)n1
→ -0.31	9.9%	i
CC(C)(C)OC(=O)N1Cc2ccccc2C[C@H]1C(=O)O
→ 0.24	1.8%	i
COc1cccc(C(=O)Nc2c3c(nn2-c2ccccc2C)CS(=O)C3)c1OC (centres undefined)
→ 1.66	-3.2%	i
